# Assay outcomes from PubChem BioAssay.
# rRNA inh HTS: selective bacterial rRNA inhibition in E. coli | E. coli WT GFP vs humanized-ribosome RFP mutants, fluorescence, 24 h; hits give low values; DMSO median 0, no signal -100 | GFP signal change (wild-type ribosome), % (concentration not given with the values) | 350,000 compounds, 1.6% hits | AID 720706;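 active = significant combined selectivity score with lowered wild-type GFP, culture density cut under 30%, mutant RFP and density less affected; inactive = any of these conditions unmet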; also: one replicate is shown; some compounds called inactive have numbers as strong as hits
# FGF22 binding: binders of recombinant human FGF22 by thermal shift. Q9HCT0. SYPRO orange fluorescence; percent of sucrose octasulfate shift, DMSO zero. calls only at 9.99 µM. 340,000 compounds, 1.5% hits;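 active = melting point raised past a set limit in the mean and every replicate; three in four hits are not shown here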
# Target sequence (Q9HCT0 whole entry, looked up): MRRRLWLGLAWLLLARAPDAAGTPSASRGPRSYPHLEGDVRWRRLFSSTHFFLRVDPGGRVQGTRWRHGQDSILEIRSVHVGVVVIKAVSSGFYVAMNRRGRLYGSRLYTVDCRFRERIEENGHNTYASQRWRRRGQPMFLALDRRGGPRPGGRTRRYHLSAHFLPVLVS
# MLL AF4-AF9 inh: inhibitors of human MLL-AF4/AF9 interaction; inhibition, % at 10 µM; AlphaScreen, biotin-AF4 peptide binding to FLAG-AF9; 350,000 compounds, 0.47% hits; AID 651704; P42568;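 active = every replicate reaching a set inhibition limit, whatever the replicate mean, cut at about 25% in these data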;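 also: 0% = plate neutral control median and 100% = total signal loss; the record names both 10 and 1 µM as test concentration; the first replicate is given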
# Target sequence (P42568 whole entry, looked up): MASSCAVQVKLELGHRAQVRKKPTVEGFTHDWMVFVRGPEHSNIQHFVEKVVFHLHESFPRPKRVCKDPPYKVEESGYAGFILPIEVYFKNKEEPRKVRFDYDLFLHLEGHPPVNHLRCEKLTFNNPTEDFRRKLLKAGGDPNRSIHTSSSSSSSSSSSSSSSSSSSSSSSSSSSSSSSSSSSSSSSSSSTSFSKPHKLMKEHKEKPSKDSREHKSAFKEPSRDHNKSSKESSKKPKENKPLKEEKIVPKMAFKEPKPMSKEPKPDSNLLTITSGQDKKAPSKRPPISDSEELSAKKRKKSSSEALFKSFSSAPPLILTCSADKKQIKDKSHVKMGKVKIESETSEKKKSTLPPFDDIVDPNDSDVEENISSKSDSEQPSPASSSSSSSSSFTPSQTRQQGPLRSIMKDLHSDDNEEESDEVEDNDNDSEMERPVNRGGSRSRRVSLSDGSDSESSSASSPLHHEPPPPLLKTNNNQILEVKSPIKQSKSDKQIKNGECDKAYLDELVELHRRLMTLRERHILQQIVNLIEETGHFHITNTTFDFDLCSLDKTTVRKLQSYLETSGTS
# rRNA inh HTS OD600: also measured in rRNA inh HTS; calls as there; OD600 change, %; measured here: OD600 growth;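 optical density of the mix in the first replicate; 0 = DMSO median and -100 = no signal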
# rRNA inh HTS RFP: recorded beside rRNA inh HTS, whose call it bears; RFP signal change, %; measured here: RFP humanized mutant strains;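 first replicate; 0 = DMSO median and -100 = no signal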
# Starred values were filed as active, the others as inactive; i = inactive. Some of the compounds tested. The share of hits here may be higher or lower than overall.
nr	SMILES	rRNA inh HTS RFP	MLL AF4-AF9 inh	rRNA inh HTS	FGF22 binding	rRNA inh HTS OD600
1	CC1(C(=O)NS(=O)(=O)c2cccc(C#N)c2)CCN1C(=O)CCC1CCCC1 (stereo not given)	0.2	-13	3	i	7
2	O=C(COC(=O)c1ccc2ccccc2n1)NC1CCCCC1	-3.5	-0.8	0	i	4
3	Cc1noc(C)c1C(=O)N(C)C[C@H]1OCc2ccccc2-c2ccccc2C(=O)N([C@H](C)CO)C[C@@H]1C	-1.3	-0.7	-2	i	2
4	Cc1ccc(S(=O)(=O)N(C)C[C@H]2Oc3ccc(NC(=O)NC(C)C)cc3CC(=O)N([C@H](C)CO)C[C@H]2C)cc1	0.0	0.6	-2	i	3
5	COc1ccc(C(CNC(=O)c2ccc(C)c(S(=O)(=O)N3CCOCC3)c2)N2CCCC2)cc1 (stereo not given)	-4.3	-0.2	8	i	10
6	CCCC#Cc1cnc2c(c1)C(=O)N([C@@H](C)CO)C[C@H](C)[C@H](CN(C)C(=O)C1CCOCC1)O2	-2.5	-1.0	3	i	0
7	C[C@H]1CN([C@@H](C)CO)C(=O)c2ccccc2-c2ccccc2CO[C@H]1CN(C)Cc1ccccc1C(F)(F)F	0.8	0.0	-1	i	3
8	C[C@H]1CN([C@@H](C)CO)C(=O)Cc2cc(NC(=O)Nc3cccc4ccccc34)ccc2O[C@@H]1CN(C)Cc1ccccc1	4.0	3.5	1	i	2
9	C[C@@H]1CN([C@H](C)CO)C(=O)c2ccccc2-c2ccccc2CO[C@H]1CN(C)C(=O)Nc1ccc(F)cc1	-2.7	-12	-2	i	-1
10	CC(C)CC#Cc1ccc2c(c1)O[C@@H](CN(C)CC1CCOCC1)[C@@H](C)CN([C@H](C)CO)S2(=O)=O	-1.7	2.5	0	i	-4
11	COc1cc(OC)cc(C2=Cc3ccc(OC)cc3C(CC(C)=O)N2c2ccc(C#CCCO)cc2)c1 (stereo not given)	6.9	-4.4	8	i	-7
12	CCCCNC(=O)C1(C)CCN1C(=O)c1cccc2c1OCCO2 (stereo not given)	0.1	-2.5	14	i	19
13	CN(C)C(=O)c1ccc(-c2cccc(-c3nc(C(=O)NC4CCCCC4)cc4c3[C@H](CCO)N([S@@](=O)C(C)(C)C)C4)c2)cc1	22	7.5	-2	i	-8
14	COc1ccccc1CNC(=O)C[C@@H]1C[C@@H]2c3cc(NS(=O)(=O)c4ccc(F)cc4)ccc3O[C@@H]2[C@H](CO)O1	2.5	-0.1	-4	i	-11
15	CCC(=O)N1[C@H](C#N)[C@@H](c2ccccc2-c2cccc(C)c2)[C@@H]1CO	0.0	-3.8	1	i	-2
16	COc1ccc2c3c(n(C)c2c1)[C@@H](CO)N(CC1CCOCC1)CC31CCN(Cc2nccs2)CC1	9.5	-0.2	4	i	2
17	CC(C)(C)Cc1c(-c2ccc(Cl)cc2)nc2c(Cl)cc(C(F)(F)F)cn12	2.3	-7.8	4	i	18
18	C[C@H]1CN([C@@H](C)CO)C(=O)Cc2cc(N(C)C)ccc2O[C@@H]1CN(C)Cc1ccc2c(c1)OCO2	-2.0	-4.1	0	i	6
19	O=C(C[C@H]1CC[C@@H](NC(=O)Nc2ccc(C(F)(F)F)cc2)[C@@H](CO)O1)NCCN1CCCC1	6.2	5.7	-1	i	-1
20	COc1ccc(CN(C)C[C@@H]2Oc3c(NC(=O)Nc4ccc5c(c4)OCO5)cccc3C(=O)N([C@H](C)CO)C[C@@H]2C)cc1	-2.7	-17	2	i	3
21	OC[C@H]1[C@@H](c2ccc(C#Cc3ccccc3)cc2)[C@H]2CN(CC3CCOCC3)CCCCN21	-0.6	12	0	i	-5
22	COc1ccc(NC(=O)N[C@@H]2CC[C@@H](CC(=O)NCc3ccccn3)O[C@@H]2CO)cc1	-1.5	-1.9	3	i	8
23	C[C@H](CO)N1C[C@H](C)[C@H](CN(C)Cc2ccc(C(=O)Nc3ccccc3N)cc2)Oc2ccc(NS(=O)(=O)c3cccs3)cc2C1=O	1.5	5.7	-5	i	-3
24	COC(=O)[C@]12CCCCC=C1N(Cc1cccc3ccccc13)C(=O)[C@H](CC(=O)N1CCSCC1)C2	5.7	7.9	-3	i	-2
25	COc1cccc(NC(=O)C[C@H]2CC[C@@H]3[C@H](COc4ccc(NC(=O)C5CCCCC5)cc4C(=O)N3C)O2)c1	1.0	0.9	0	i	1
26	Cc1ccc(S(=O)(=O)N(C)C[C@@H]2OCCCC[C@H](C)Oc3ccc(NC(=O)Nc4ccc(C(F)(F)F)cc4)cc3C(=O)N([C@H](C)CO)C[C@H]2C)cc1	-4.3	-4.8	-4	i	-3
27	C[C@H]1CN([C@@H](C)CO)C(=O)Cc2cc(NC(=O)Nc3ccccc3)ccc2O[C@@H]1CN(C)Cc1ccncc1	-1.7	-3.3	-1	i	7
28	CCN1C[C@@H]2[C@@H]3C(=O)N(C)C(=O)[C@@H]3[C@](C)(C1=O)N2C(=O)c1ccc(C(C)(C)C)cc1	11	1.7	5	i	7
29	C[C@@H]1CN([C@H](C)CO)C(=O)c2cc(NC(=O)Nc3ccc(F)cc3)ccc2O[C@@H](C)CCCCO[C@@H]1CN(C)C(=O)Cc1ccccc1	0.0	-0.8	1	i	6
30	O=C(c1ccc2c(c1)OCO2)N1C[C@@H]2[C@H](c3ccccc31)[C@H](CO)N2Cc1ccccc1Cl	13	1.0	-23	i	-50
31	O=S(=O)(N[C@@H]1CC[C@@H](CCn2cc(-c3ccc(F)cc3)nn2)O[C@@H]1CO)c1ccccc1F	1.4	0.3	-2	i	-6
32	Cc1noc(C)c1NC(=O)N(C)C[C@H]1Oc2c(NC(=O)Nc3ccc4c(c3)OCO4)cccc2C(=O)N([C@H](C)CO)C[C@H]1C	-1.0	-0.4	3	i	2
33	C[C@@H]1CN([C@@H](C)CO)C(=O)CCCn2cc(nn2)CO[C@H]1CN(C)Cc1cccc(C(=O)O)c1	-1.7	-9.8	0	i	6
34	Cc1ccc(-c2ccc([C@@H]3[C@@H](CO)N4CCCCN(C)C[C@H]34)cc2)cc1	2.1	3.8	1	i	3
35	COC(=O)C1=C(C)N(C)C(=NCc2ccc(OC)cc2)NC1c1ccc(F)cc1 (stereo not given)	1.7	-1.7	13	i	9
36	CC=Cc1ccc2n(c1=O)C[C@@H]1[C@@H](CO)[C@H](C(=O)NCCC)N(CC3CCOCC3)[C@H]21 (mixture of isomers)	0.6	0.3	1	i	3
37	CC(=O)N(C)C[C@H]1Oc2cc(C#CC3CCCCC3)ccc2S(=O)(=O)N([C@@H](C)CO)C[C@@H]1C	14	4.3	-5	i	-41
38	COc1ccc(CNC(=O)C[C@H]2CC[C@H]3[C@@H](COc4ccc(NC(=O)C5CC5)cc4C(=O)N3C)O2)cc1	-1.8	-1.0	0	i	7
39	COCC(=O)N1CC2(C1)[C@@H](c1ccccc1)[C@@H](CO)N2CCC(F)(F)F	-2.6	-8.5	0	i	11
40	CS(=O)(=O)Nc1ccc2c(c1)[C@@H]1C[C@H](CC(=O)NC3CCCCC3)O[C@H](CO)[C@@H]1O2	-2.4	-1.8	0	i	0
41	C[C@@H]1CN([C@H](C)CO)C(=O)c2cc(C#CC(C)(C)O)cnc2O[C@@H]1CN(C)Cc1cncnc1	-6.0	-7.0	4	i	13
42	O=S(=O)(N[C@@H]1CC[C@@H](CCn2cc(-c3ccccc3F)nn2)O[C@H]1CO)c1ccc(Cl)cc1	33	1.6	-4	i	-26
43	C[C@H]1CN([C@@H](C)CO)C(=O)Cc2cc(NC(=O)CCN3CCOCC3)ccc2O[C@H]1CN(C)S(C)(=O)=O	-1.5	-2.8	5	i	3
44	Cc1ccc(-n2c(COc3ccccc3)nnc2SCC(=O)O)cc1	-1.9	-1.1	1	i	-12
45	CCCNC(=O)[C@@H]1[C@@H](CO)[C@@H]2Cn3c(ccc(-c4cccc(F)c4)c3=O)[C@H]1N2Cc1ccccc1F	-0.5	-0.7	-3	i	-11
46	COc1ccc(NC(=O)Nc2cccc3c2O[C@H](CN(C)C)[C@H](C)CN([C@H](C)CO)C3=O)cc1	-0.5	-1.6	0	i	2
47	CC1(C(=O)O)CCCN1C(=O)c1cccc(F)c1 (stereo not given)	0.8	-1.5	3	i	6
48	COCc1cn(CC[C@H]2CC[C@@H](NC(=O)c3ccc(F)cc3)[C@@H](CO)O2)nn1	-2.0	-0.4	-2	i	-1
49	Cc1ccc(S(=O)(=O)Nc2cccc3c2O[C@@H](CN(C)S(=O)(=O)c2ccc(C)cc2)[C@@H](C)CN([C@H](C)CO)C3=O)cc1	2.8	1.2	-1	i	-1
50	Cc1ccc(S(=O)(=O)N(C)C[C@H]2Oc3ncc(C#CC4(O)CCCC4)cc3C(=O)N([C@@H](C)CO)C[C@H]2C)cc1	-0.9	0.4	-2	i	0

# Exported screen by screen: entries from further up.
[28] CCN1C[C@@H]2[C@@H]3C(=O)N(C)C(=O)[C@@H]3[C@](C)(C1=O)N2C(=O)c1ccc(C(C)(C)C)cc1
[29] C[C@@H]1CN([C@H](C)CO)C(=O)c2cc(NC(=O)Nc3ccc(F)cc3)ccc2O[C@@H](C)CCCCO[C@@H]1CN(C)C(=O)Cc1ccccc1
Assay by compound | 28 | 29
rRNA inh HTS RFP | 11 | 0.0
MLL AF4-AF9 inh | 1.7 | -0.8
rRNA inh HTS | 5 | 1
FGF22 binding | i | i
rRNA inh HTS OD600 | 7 | 6

# (more compounds)
nr	SMILES	rRNA inh HTS RFP	MLL AF4-AF9 inh	rRNA inh HTS	FGF22 binding	rRNA inh HTS OD600
51	Nc1ccn([C@@H]2O[C@H](C(=O)N3CCCN(Cc4ccccc4F)CC3)[C@@H](O)[C@H]2O)c(=O)n1	2.9	0.5	14	i	15
52	CCCNC(=O)N1C[C@H](O)COC[C@H]2O[C@@H](CC(=O)O)CC[C@@H]21	-4.1	-1.2	-1	i	9
53	N#C[C@@H]1[C@H](c2ccc(C#CC3CCCCC3)cc2)[C@H](CO)N1C(=O)Cc1ccccn1	-3.9	4.3	-46	i	-71
54	C[C@@H]1CN([C@@H](C)CO)C(=O)c2cc(NC(=O)c3ccccc3)ccc2O[C@@H](C)CCCCO[C@@H]1CN(C)C(=O)Cc1ccccc1	5.8	-2.5	1	i	-1
55	O=C(C[C@H]1C=C[C@@H](NC(=O)c2ccc3c(c2)OCO3)[C@H](CO)O1)NCc1ccc(F)cc1	-0.6	-1.7	-9	i	-5
56	OC(c1cccc(Cl)c1)c1ncc(-c2ccc3ccccc3c2)[nH]1 (stereo not given)	-19	4.3	-61	i	-78
57	CCCC#Cc1cnc2c(c1)C(=O)N([C@@H](C)CO)C[C@H](C)[C@H](CN(C)C(=O)Nc1ccc(OC)cc1)O2	-0.7	2.0	0	i	1
58	COc1ccc(NC(=O)Nc2ccc3c(c2)CC(=O)N([C@H](C)CO)C[C@@H](C)[C@@H](CN(C)S(=O)(=O)c2c(C)noc2C)O3)cc1	3.4	2.2	1	i	12
59	O=C(N[C@H]1CC[C@@H](CCn2cc(Cc3ccccc3)nn2)O[C@@H]1CO)c1cnccn1	-4.5	-2.9	3	i	3
60	N#C[C@@H]1N[C@@H](CO)[C@H]1c1ccc(C#CC2CCCCC2)cc1	3.5	1.1	8	i	6
61	C[C@H]1CN([C@@H](C)CO)C(=O)CCCn2cc(nn2)CO[C@H]1CN(C)Cc1cccc(O)c1	0.2	0.1	-1	i	-7
62	C[C@@H]1CN([C@H](C)CO)S(=O)(=O)c2ccc(-c3ccncc3)cc2O[C@H]1CN(C)C(=O)C1CC1	-1.0	-0.4	-2	i	-12
63	CC(=O)Nc1ccc(C2=NOC(C)(C)C(=O)N2Cc2cccc(C#N)c2)cc1	-3.6	-0.9	-1	i	1
64	CCNC(=O)C[C@@H]1CC[C@H]2[C@H](COc3ccc(NC(=O)c4cccs4)cc3C(=O)N2C)O1	-2.1	0.7	-2	i	-7
65	CN(C(=O)c1ccc(NC(=O)Cc2cccc(NC(=O)C3CCCN(C(=O)CCc4ccccc4)C3)c2)cc1)C1CC1 (stereo not given)	0.0	-4.6	-2	i	-6
66	Clc1cccc(N2CCN(CCCN3CCN(c4ccccc4)CC3)CC2)c1	10	16	-11	i	-27
67	C[C@H](CO)N1C[C@H](C)[C@H](CN(C)Cc2cccc(F)c2)Oc2cc(-c3cccc(C#N)c3)ccc2S1(=O)=O	3.6	-1.4	-8	i	-9
68	Cc1ccc(-c2c(C)sc3nc(CN4CCN(CC(=O)NC5CC5)CC4)[nH]c(=O)c23)cc1	1.6	1.2	4	i	-21
69	COCC(=O)Nc1ccc2c(c1)C(=O)N(C)C[C@@H](OC)[C@H](C)CN(C(=O)Cc1ccccn1)[C@@H](C)CO2	-3.2	-0.8	1	i	0
70	Cc1ccc(S(=O)(=O)N(C)C[C@@H]2Oc3ccc(NS(=O)(=O)c4c(C)noc4C)cc3CC(=O)N([C@H](C)CO)C[C@H]2C)cc1	-1.9	-1.1	-2	i	-2

# Profiles from above:
# C[C@@H]1CN([C@@H](C)CO)C(=O)c2cc(NC(=O)c3ccccc3)ccc2O[C@@H](C)CCCCO[C@@H]1CN(C)C(=O)Cc1ccccc1 is listed as rRNA inh HTS RFP: 5.8; MLL AF4-AF9 inh: -2.5; rRNA inh HTS: 1; FGF22 binding: i; rRNA inh HTS OD600: -1
# COCC(=O)Nc1ccc2c(c1)C(=O)N(C)C[C@@H](OC)[C@H](C)CN(C(=O)Cc1ccccn1)[C@@H](C)CO2 is listed as rRNA inh HTS RFP: -3.2; MLL AF4-AF9 inh: -0.8; rRNA inh HTS: 1; FGF22 binding: i; rRNA inh HTS OD600: 0
